Assay outcomes deposited in PubChem BioAssay by National Center for Advancing Translational Sciences (NCATS).
HPGD block: blocks human HPGD enzyme activity. P15428. purified HPGD, NADH fluorescence kinetic, PGE2 substrate. Potency, µM, without a hit: top-dose activity change, negative = inhibition, usual class: inhibitors. hit rate 4.3% among 150,000. AID 894; active = well fitted inhibition curve with a large enough effect (not every such curve was filed as active); inconclusive = small, poorly fitted or top-dose-only effect, or another doubt; inactive = no such curve, though single readings can be large or run the other way;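 note: top concentration of the series not given in the record; plate controls included wells without enzyme; inactives centre near -10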
Target sequence (P15428 whole entry, looked up): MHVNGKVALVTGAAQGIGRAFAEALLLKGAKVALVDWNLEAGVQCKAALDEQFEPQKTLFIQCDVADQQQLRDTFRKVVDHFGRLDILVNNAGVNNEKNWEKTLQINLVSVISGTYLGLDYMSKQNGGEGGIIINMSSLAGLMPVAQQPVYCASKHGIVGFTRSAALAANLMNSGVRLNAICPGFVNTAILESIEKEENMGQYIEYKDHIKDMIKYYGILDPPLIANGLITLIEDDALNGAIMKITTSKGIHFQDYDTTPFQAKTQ
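20 nM HPGD preincubated 15 min at room temperature with compound in 50 mM Tris-HCl pH 8, 0.01% Tween 20. Started with 1 mM NAD+ and 30 uM prostaglandin E2; NADH fluorescence (360/450 nm) read 5 times over 30-s intervals, last minus first.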
Active calls of the source: *; ? = inconclusive; & = joins results of further samples. % is set by controls: 0 for no effect and ±100 for the full control effect; potency is the fitted concentration of half-maximal effect. The list is partial; rates above refer to the full screens.

SMILES | HPGD block
Cc1cc(C)cc(NS(=O)(=O)c2ccc(NC(=S)NC(=O)c3cccs3)cc2)c1 | -14%
COc1ccc(NC(=O)COC(=O)c2ccc(Br)o2)cc1OC | 0%
Clc1ccc(CSc2nnc(-c3sccc3-n3cccc3)o2)cc1 | -13%
CCOC(=O)c1sc(NC(=O)C2CCCO2)c(C(=O)OCC)c1C (stereo not drawn) | ?
Cc1ccc(CNC(=O)COc2ccc3c(c2)CCC3)cc1 | ?
C[C@H](O)C(=O)Nc1c(I)c(C(=O)NC(CO)CO)c(I)c(C(=O)NC(CO)CO)c1I | -9%
CCc1nccn1S(=O)(=O)c1ccc(OC)c(OC)c1 | -1%
O=C(O)CC(NC(=O)OCc1ccccc1)c1ccc(Br)cc1 (stereo not drawn) | -6%
NC12CC3CC(CC(C3)C1)C2 | -27%&-10%&-4%&-9%
O=C(NCc1ccccn1)c1ccc(CNS(=O)(=O)c2ccc(F)cc2)cc1 | -10%
CC(=O)c1ccc(NC(=O)CSCC(=O)Nc2ccc3ccccc3c2)cc1 | -12%
COC(=O)c1cccnc1-n1c(=O)c2cccnc2n(Cc2cccc(OC)c2)c1=O | -3%
COc1ccc(C(=O)Cn2nnc(-c3cccs3)n2)cc1 | -22%
Cc1cc(NC(=O)CCN2C(=O)C3C4CCC(C4)C3C2=O)c(C)cc1Br (stereo not drawn) | -20%
CN1CCOc2cc(S(=O)(=O)Nc3ccc(F)cc3)ccc21 | -8%
O=C(Cc1cccs1)NNC(=S)NC(=O)c1ccc(F)c(F)c1 | -9%
COc1ccc(CC(NC(C)=O)C(=O)N2CCN(C(=O)Nc3cccc(Cl)c3)CC2)cc1OC (stereo not drawn) | 2%
COCCCNC(=O)CCC(=O)Nc1ccc2nc(N3CCOCC3)cc(C)c2c1 | ?
O=C(c1ccc(S(=O)(=O)N2CCC(c3nc4ccccc4s3)CC2)cc1)N1CCOCC1 | -11%
COc1cccc(NC(=O)CSc2nc3ccccc3c(=O)n2CCCC(=O)N2CCCC2)c1 | 28µM*
Cc1cccc(C)c1NC(=O)Cn1c(=O)n(CCC(=O)NCc2ccco2)c(=O)c2sccc21 | -4%
Cc1cc(N2CCCC2)n2nc(C)nc2n1 | -9%
Cc1cc(NC(=O)C2C3C(=O)N(CC4CCCO4)C(C(=O)NCc4ccccc4)C34C=CC2(C)O4)no1 (stereo not drawn) | -11%
O=S(=O)(c1ccccc1)N1CCC2(CCN(Cc3ccncc3)CC2)CC1 | -8%
Oc1ccc(Cl)cc1C=Nc1ccccc1Br | -5%

Sorted by number of heavy atoms (falling): some entries from above
SMILES | HPGD block
Cc1cc(NC(=O)C2C3C(=O)N(CC4CCCO4)C(C(=O)NCc4ccccc4)C34C=CC2(C)O4)no1 (stereo not drawn) | -11%
COC(=O)c1cccnc1-n1c(=O)c2cccnc2n(Cc2cccc(OC)c2)c1=O | -3%
Cc1cc(NC(=O)CCN2C(=O)C3C4CCC(C4)C3C2=O)c(C)cc1Br (stereo not drawn) | -20%
Clc1ccc(CSc2nnc(-c3sccc3-n3cccc3)o2)cc1 | -13%
Cc1ccc(CNC(=O)COc2ccc3c(c2)CCC3)cc1 | ?
NC12CC3CC(CC(C3)C1)C2 | -27%&-10%&-4%&-9%

Returning to the listing, repeating the two entries before the break.
SMILES | HPGD block
O=S(=O)(c1ccccc1)N1CCC2(CCN(Cc3ccncc3)CC2)CC1 | -8%
Oc1ccc(Cl)cc1C=Nc1ccccc1Br | -5%
Cc1noc(C)c1CSc1ncnc2ccccc12 | -27%
COc1ccc2c(c1)OC13CCN(C)CC1C2C(C(=O)c1ccc(F)cc1)C(=O)N3 (stereo not drawn) | -17%
Cc1cc2ccccc2c(=O)n1CC(=O)NCC(=O)N(C)C1CCCCC1 | ?
Cc1ccc2nc(Cl)c(CN(C(=O)c3cnccn3)C3CCCCC3)cc2c1 | -6%
CCOCN(C(=O)Cn1c(C(C)O)nc2ccccc21)c1c(C)cccc1CC (stereo not drawn) | -6%
CC1(C)Cc2cccc(OCC(=O)N3CCN(c4ccc([N+](=O)[O-])cc4)CC3)c2O1 | -23%
OC[C@H]1O[C@@H](O[C@@H]2[C@@H](CO)O[C@](O)(CO)[C@H]2O)[C@H](O)[C@@H](O)[C@H]1O | 0%
CCCCNC(=O)CCn1c(=O)c2ccccc2n(Cc2ccccc2C)c1=O | -1%
Cc1oc(/N=C/c2ccc3c(c2)OCO3)c(C#N)c1C | -1%
Cc1cccc(N2CCN(C(=O)c3cccn4c(=O)c5c(C)c(C)sc5nc34)CC2)c1C | ?
Cc1cccc2sc(NC(=O)CSCc3ccccc3)nc12 | -13%
Cc1nn(C)c(C)c1C1Nc2ccccc2C(=O)N1O (stereo not drawn) | -3%
c1ccc(CO[C@H]2NCCN2Cc2ccccc2)cc1 | -8%
COc1ccc(Cl)cc1NC(=O)CSc1nnc(Cc2cccn2C)n1-c1ccc(F)cc1 | -3%
O=C(CN1CCOCC1)Nc1ncccn1 | -5%
CCN(CC)S(=O)(=O)c1cc(NS(=O)(=O)c2ccccc2)ccc1C | -8%
CCOC(=O)CNC(=O)O[C@@H]1Cc2cc(OC)ccc2O[C@H]1c1cccc(OC)c1 | -8%
c1ccc(-c2nc3nonc3c3nc4ccccc4n23)cc1 | ?
COc1ccc(OC)c(C2/C(=C(/O)c3ccc(C)cc3)C(=O)C(=O)N2Cc2ccco2)c1 (stereo not drawn) | -6%
Cc1nc2ccccc2nc1OCC(=O)NCC(F)(F)F | -28%
CN1CCN(/N=C/c2nc(-c3ccc(Cl)cc3)n3ccccc23)CC1 | -27%
CC1CCCN(C(=O)C(Cc2ccccc2)n2cccc2)C1 (stereo not drawn) | 14µM*
O=C(O)c1ccccc1-c1ccccc1C(=O)Nc1ccc2c(c1)Cc1ccccc1-2 | -4%
Cc1cc(Cl)c(S(=O)(=O)NC(C(=O)O)c2ccccc2)cc1OCC(N)=O (stereo not drawn) | -7%
COc1ccc(/C(=C/c2ccc(OC(F)F)c(OC)c2)C(=O)O)cc1OC | -15%

Further compounds follow.
SMILES | HPGD block
Nc1nc(-c2cccs2)cs1 | -5%&-1%
Oc1c([C@H](Nc2ccccn2)c2ccccc2)ccc2cccnc12 | -9%
COc1cccc(C(=O)N2CCN(C(=O)c3cccc(F)c3)CC2)c1 | -1%
CCn1c(N2CCN(CC(=O)c3c[nH]c4ccccc34)CC2)nc2c1c(=O)[nH]c(=O)n2C | -12%
Cc1ccc(-c2nn(C)c(=O)c3ccccc23)cc1CNC(=O)Cn1nc(-c2ccccc2)c2ccccc2c1=O | -10%
COc1cc(Nc2nc(-c3ccccc3)c3cc(C)ccc3n2)cc(OC)c1OC | -16%
COC(=O)C1(C(=O)OC)CC2=CCC3C(=O)N(c4ccccc4)C(=O)C3C2Cc2ccccc2[C@@H]1C[N+](=O)[O-] (stereo partly drawn) | -2%
CCSc1nnc(Nc2ccc(C)cc2)s1 | -10%
COc1cc2nc(=S)n3[nH]c(CCn4nc(C)cc4C)nc3c2cc1OC | ?
Cc1ccsc1/C=C1/SC(N2CC(C)OC(C)C2)=NC1=O (stereo not drawn) | 32µM*
COC(=O)C1=C(C(=O)OC)[C@@H]2Nc3ccccc3[C@@]23C[C@@H](C(=O)OC)N(C(=O)c2cc(C)oc2C)C3=N1 | -6%
Cc1nnc(SCC(=O)N2CCC(c3noc4ccc(F)cc34)CC2)s1 | -12%
NC(=O)CSc1nnnn1-c1ccc2c(c1)OCCO2 | 2%
CCN(CC)S(=O)(=O)c1ccc(S(=O)(=O)Nc2ccc3c(c2)oc2ccccc23)cc1 | -17%
CN(C)CCN1C(=O)C(O)=C(C(=O)c2cc3ccccc3o2)C1c1ccccn1 (stereo not drawn) | -11%
Cc1ccc(S(=O)(=O)NCCCOC(=O)Nc2ccncc2)cc1 | -6%
COC(=O)c1ccccc1NC(=O)C(C)NS(=O)(=O)c1ccc(OC)cc1 (stereo not drawn) | ?
CCOC(=O)c1cc(-c2ccccc2)n(CCC(=O)N2CCN(c3ccccc3OC)CC2)c1C | -15%
CCn1c(C)cc2c(c1=O)C(c1ccccc1Br)C(C#N)=C(N)O2 (stereo not drawn) | -10%
COc1ccc(C2C(C(=O)N3CCN(c4ccccc4F)CC3)c3ccccc3C(=O)N2C)cc1 (stereo not drawn) | -7%
CCOC(=O)c1cc2c(N)c(C(=O)c3cc(C#N)c(SC)nc3C)sc2nc1C | -13%
CC(=O)Nc1cccc(C(=O)N/N=C/c2ccccc2F)c1 | 35µM*
CC(C)n1c(SCCCc2ccccc2)nc2c1c(=O)[nH]c(=O)n2C | 20µM*
Cc1ccc(NC(=O)Cn2c(/C=C/c3ccccc3)nc3ccccc32)cc1C | ?
COc1ccc(-c2nnc(SCc3nnc(-c4ccc(Cl)cc4)o3)n2-c2ccccc2)cc1 | -21%

Continuation.
SMILES | HPGD block
COc1ncnc(NS(=O)(=O)c2ccc(N)cc2)c1OC | -3%
CCOC(=O)c1c(N)sc(C(N)=O)c1C | ?
COCC(=O)Nc1cc(Cl)c(OC)cc1OC | -15%
O=C(c1cccs1)N1CCc2c([nH]c3ccccc23)C1c1ccc(Cl)cc1 (stereo not drawn) | -3%
Cn1c(C(N)=O)cnc1Sc1ncc(C(F)(F)F)cc1Cl | -16%
Cc1nnc(-c2cnn(-c3ccccc3)c2N)n1Cc1ccccc1 | -30%
CCn1c(CNc2ccc(OC)cc2)nnc1SCC(=O)N1CCCc2ccccc21 | -1%
CC1(C)Cc2c(C#N)c(NCCCO)nc(-c3ccccc3)c2CO1 | ?
Cc1nc(NC(=O)CSc2nnc(Cn3nnc4ccccc43)n2C)sc1C | -1%
COC(=O)c1sc2ncccc2c1OCc1c(Cl)cccc1Cl | -19%
COC(=O)N(NC(=O)C(O)(CCC(C)C)CCC(C)C)c1ccccc1 | 0%
CCCCOc1ccc(CSCCNC(=S)Nc2ccccc2)cc1 | -12%
O=C(COC(=O)CN1C(=O)C2CCCCC2C1=O)Nc1ccc(S(=O)(=O)N2CCOCC2)cc1 (stereo not drawn) | -4%
Cc1occc1C(=O)NC1CCCCCC1 | -10%
CCOc1ccc(C(CC(=O)O)NC(=O)C2c3ccccc3Oc3ccccc32)cc1 (stereo not drawn) | 3%
O=C(c1cccc(F)c1)N1CCC2(CCN(Cc3nccs3)CC2)CC1 | -5%
Cc1noc(C)c1COC(=O)C1CC(O)CN1S(=O)(=O)c1ccc(Cl)cc1 (stereo not drawn) | -12%
CCn1c(C)[n+](CCCS(=O)(=O)[O-])c2cc(Cl)c(Cl)cc21 | -6%
O=C(Nc1nc(COc2ccccc2)cs1)C12CC3CC(CC(C3)C1)C2 | -6%
O=C(COc1ccccc1Cl)NCCCN1CCOCC1 | -1%
CC1Cc2ccccc2N1c1ncnc2c1nnn2Cc1ccccc1 (stereo not drawn) | ?
CC1(C(=O)O)Sc2[nH]c(=O)sc2C2c3ccccc3OC(=O)C21 (stereo not drawn) | -18%
COc1ccccc1N(CCC#N)C(=O)CSc1ccc2c(c1)OCCO2 | -11%
CCOC(=O)C1NC(=O)CC1c1ccccc1 (stereo not drawn) | -11%
O=C(CN1CCN(c2ccccn2)CC1)NC1CCCCC1 | -5%

Grouped by structure: the compounds so far containing bromine (five)
SMILES | HPGD block
COc1ccc(NC(=O)COC(=O)c2ccc(Br)o2)cc1OC | 0%
O=C(O)CC(NC(=O)OCc1ccccc1)c1ccc(Br)cc1 (stereo not drawn) | -6%
Cc1cc(NC(=O)CCN2C(=O)C3C4CCC(C4)C3C2=O)c(C)cc1Br (stereo not drawn) | -20%
Oc1ccc(Cl)cc1C=Nc1ccccc1Br | -5%
CCn1c(C)cc2c(c1=O)C(c1ccccc1Br)C(C#N)=C(N)O2 (stereo not drawn) | -10%

Remaining list, next part:
SMILES | HPGD block
O=C(Nc1nc(-c2ccc(S(=O)(=O)N3CCCCCC3)cc2)cs1)c1cccs1 | ?
CCCCOC(=O)CCn1c(=S)oc2ccccc21 | -13%
COc1ccc(S(=O)(=O)N(C)CC(=O)N2CCN(c3ccc(F)cc3)CC2)cc1OC | -13%
CCOC(=O)c1ccc2nc(C)c3c(c2c1)OC(C)C3 (stereo not drawn) | ?
C[C@]12O[C@H]1[C@@H](O)C(Br)=C(CO)[C@H]2O | -4%
CC1CCCCN1CC(=O)Nc1ccc(Oc2ccccc2)cc1 (stereo not drawn) | ?
Cc1ccc(-c2noc(CN(C(=O)C(c3ccccc3)c3ccccc3)C(C)C)n2)cc1 | -16%
Fc1cccc(NC(=S)N2CCCC2)c1 | -5%
COc1ccc(/C=N/NC(=O)Cn2c(Cc3ccc(OC)c(OC)c3)nc3ccccc32)cc1OC | -15%
CC(C)C(C(=O)Nc1ccc(S(=O)(=O)N2CCOCC2)cc1)N1C(=O)c2ccccc2C1=O (stereo not drawn) | ?
CCCCCC(=O)N1CCCC(c2nc(-c3ccc(OC)cc3)no2)C1 (stereo not drawn) | -13%
O=C(OCC(=O)c1ccc[nH]1)c1ccc(S(=O)(=O)N2CCCCCC2)cc1 | -15%
CCn1cc(CNC(=O)/C=C/c2ccc([N+](=O)[O-])cc2)cn1 | -3%
CCc1ccc2c(-c3cccc(Cl)c3)nc(=O)n(CC)c2n1 | -12%
O=C(CC(=O)c1ccncc1)c1ccccc1 | 3.5µM*
Cc1ccc(/C=C/C(=O)NC2CCCCCCC2)o1 | 3.5µM*
Cc1ccc2nc(N(CCCN(C)C)C(=O)c3cc4ccccc4oc3=O)sc2c1 | -10%
CCOc1ccc(Oc2ccc(-c3nnc(-c4ccccc4)o3)cc2[N+](=O)[O-])cc1 | -26%
Cc1c(Cl)cccc1Nc1nc(N)nc(CSc2ncccn2)n1 | -1%
CCOc1cc(/C=C(\C#N)c2[nH]nc(N)c2C#N)ccc1O | 25µM*
CCOC(=O)c1ccccc1N/C=C1\CCCC1=O | -22%
O=C(COC(=O)/C(=C/c1cccs1)c1cccs1)NC(c1ccccc1)c1ccccc1 | -23%
CN(C)c1nc(N)nc(Cn2ccnc2)n1 | -12%
Cc1ccc(O)c(NC(=S)NC(=O)CC(C)C)c1 | -9%
COc1ccc(C(=O)N[C@H](C(=O)OCC(=O)NC(=O)c2cccn2C)C(C)C)cc1 | -10%
